Source: PubChem BioAssay
HPGD inh: HPGD (human) dehydrogenase inhibition | P15428 | purified HPGD, NADH fluorescence kinetic, PGE2 substrate | Potency, µM, inactives show top-dose activity change, negative = inhibition, usual class: inhibitors | 150,000 compounds, 4.3% hits; active = well fitted inhibition curve with a large enough effect (not every such curve was filed as active); inconclusive = small, poorly fitted or top-dose-only effect, or another doubt; inactive = no such curve, though single readings can be large or run the other way;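 further: top concentration of the series not given in the record; plate controls included wells without enzyme; inactives centre near -10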
Target sequence (P15428 whole entry, looked up): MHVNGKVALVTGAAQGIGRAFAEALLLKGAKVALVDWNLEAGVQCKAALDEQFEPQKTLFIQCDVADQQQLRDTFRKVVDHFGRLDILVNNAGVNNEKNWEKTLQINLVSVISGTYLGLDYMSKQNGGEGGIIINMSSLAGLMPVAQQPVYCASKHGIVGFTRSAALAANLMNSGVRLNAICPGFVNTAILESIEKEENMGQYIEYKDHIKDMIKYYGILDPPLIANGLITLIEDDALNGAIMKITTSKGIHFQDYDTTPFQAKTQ
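20 nM HPGD preincubated 15 min at room temperature with compound in 50 mM Tris-HCl pH 8, 0.01% Tween 20. Started with 1 mM NAD+ and 30 uM prostaglandin E2; NADH fluorescence (360/450 nm) read 5 times over 30-s intervals, last minus first.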
* marks the source's active call; other numbers are inactive results; ? = inconclusive. On the % scale 0 is the no-effect control and ±100 the full control effect; potency means the concentration at half of the fitted maximal effect. Only part of the results is shown; count on the stated rates, not on these rows.

HPGD inh | canonical_smiles
? | COc1ccc(Br)cc1/C=N/NC(=O)c1ccc(COc2ccc3c(c2)CCC3)o1
-20% | CCn1cc(C(=O)NC(C)C2CC3CCC2C3)cn1 (configuration not stated)
3% | CCC(C)C(=O)OC1CCC=C2C=CC(C)C(CCC3CC(O)CC(=O)O3)[C@@H]21 (some centres not stated)
-9% | O=C(c1cc(S(=O)(=O)N2CCOCC2)ccc1F)N1CCN(Cc2ccccc2)CC1
-11% | Cc1ccc(NC(=O)c2ccc(OC(=O)c3ccco3)cc2)cc1
-16% | CC(=O)c1ccc(NC(=O)N[C@@H](Cc2ccccc2)C(=O)O)cc1
-6% | Cc1nn(Cc2ccc(F)cc2)c(C)c1NC(=O)c1cnn2c1NC(c1ccccc1)CC2C(F)(F)F (configuration not stated)
-8% | CCOC(=O)N1CCC(NC(=O)c2cc(C(=O)NCC(OC)OC)ccc2CO)CC1
-6% | Cc1cc2nc(C3CCCN(C(=S)Nc4ccccc4C)C3)[nH]c2cc1C (configuration not stated)
-7% | O=C(CCNC(=O)c1ccccc1)Nc1ccc(F)c(Cl)c1
-13% | COc1ccc(C)cc1NC(=O)CSc1ccc(Cl)cc1
-8% | CC(=O)Oc1c(Cl)c(N2CCOCC2)c(OC(C)=O)c2ccccc12
-12% | Cc1nc(=O)c(-c2ccccc2)c(C)n1Cc1ccccc1
-12% | C=CCNc1nc(Nc2ccc(OC)cc2OC)nc(OCC)n1
-21% | CC(C)COC(=O)c1ccc2c(c1O)C(=O)c1ccccc1C2=O
-5% | CCOC(=O)C(NC(C)=O)(Nc1ccc(S(=O)(=O)Nc2nccs2)cc1)C(F)(F)F (configuration not stated)
-7% | CC(C)CC1NC(=O)N(CC(=O)N2CCN(S(=O)(=O)c3ccc4ccccc4c3)CC2)C1=O (configuration not stated)
-10% | CC(C)(C)NC(=O)C(c1ccc(F)cc1)N(Cc1ccco1)C(=O)Cn1nnc(-c2cccs2)n1 (configuration not stated)
-6% | CCOc1ccccc1NC(=O)CN(c1ccc(OC)cc1)S(=O)(=O)c1c(C)noc1C
-1% | CCN1CCN(c2ccc(S(=O)(=O)N(CC)CC)cc2[N+](=O)[O-])CC1
-9% | Cc1ccccc1N=Cc1c(O)n(-c2nccs2)c(=O)c2ccccc12
-13% | C=CCn1c(SCC(=O)N2CCCC2)nc2scc(-c3cccs3)c2c1=O
0% | COc1ccc(C(=O)NCCSCc2ccc(C)cc2)cc1
-4% | CCc1nc2ccccc2c(C(=O)Oc2ccc(C(=O)OC)cc2)c1C
-23% | O=C(CCCn1c(=O)[nH]c2ccccc2c1=O)N1CCN(c2ccccn2)CC1
-14% | O=C(N/C(=C/c1ccc(Br)cc1)C(=O)N1CCCC1)c1ccccc1F
0% | CNCc1ccccc1Sc1ccc(OC)cc1
-12% | COc1ccccc1CN1CCC2(CCNCC2)CC1
-8% | COc1ccc(-n2c(-c3cnccn3)n[nH]c2=S)cc1
? | Cc1ccc(NCc2nc3ccccc3n2CCOc2ccccc2)cc1
-28% | C=CCn1c(SCC(=O)NC(N)=O)nnc1-c1cc2c(s1)CCC(CC)C2 (configuration not stated)
-7% | O=C(O)CCc1ccc(-c2cccs2)n1NC(=O)c1ccc(Cl)cc1
-2% | CCCc1nn(C)c(C(=O)Nc2ccc(CC)cc2)c1Cl
-10% | Cc1cc(C)n(-c2cc(Cl)cc(Cl)c2)c(=O)c1C#N
? | NC(=Nc1ccccc1)NC(=O)c1nc(Cl)c(N)nc1N
-3% | Cc1ccc(N2CC(C(=O)NCCc3ccc(S(N)(=O)=O)cc3)CC2=O)cc1 (configuration not stated)
-1% | CC/C(Cc1ccccc1)=N/NC(=O)c1cccc(Br)c1
-2% | O=C(c1ccco1)N1CCC2(CCCN(c3ccccc3)C2)CC1
-21% | COc1ccc(CN(C(=O)c2ccco2)c2ccccc2)cc1
? | CCOC(=O)c1[nH]c2ccc(OC)cc2c1NC(=O)NC(C)C
-12% | Cc1nnc(SCc2ccccc2)n1N
-4% | CCCC(=O)Nc1ccc(N2CCN(C(=O)c3ccccc3C)CC2)cc1
-11% | O=C1CSCC(=O)N1c1ccccc1
-11% | O=C(CN1C(=O)COc2ccccc21)Nc1ccc2c(c1)OCCO2
-6% | O=C(Cc1ccccc1[N+](=O)[O-])NCc1ccccc1Cl
-15% | Cc1nn(C(=O)c2ccco2)c(C)c1Sc1ccc(Br)cc1
-20% | Cc1cccnc1NC(=O)c1cc2c(=O)oc3ccccc3c2s1
-5% | COc1ccc2c(c1OC)C(=O)N1c3ccccc3C(=O)OC21 (configuration not stated)
-10% | O=C(CSc1nn(-c2ccccc2)c(=S)s1)Nn1cnnc1
-5% | NC(=O)C[C@@H]1N[C@]2(C(=O)Nc3ccccc32)[C@@H]2C(=O)N(C3CCCCC3)C(=O)[C@H]12
-3% | N#CC1=C2SCC(O)(c3ccccc3)N2C(=O)CC1c1ccccc1 (configuration not stated)
-8% | Nc1nnc(SCC(=O)OCc2ccc(F)cc2)s1
-14% | COc1ccc(N2C(=O)CSC23CCC(C(C)(C)C)CC3)cc1 (configuration not stated)
-1% | CCOC(=O)c1ccc(NC(=S)N(CCCN2CCCC2)Cc2ccco2)cc1
4.5µM* | O=C(O)c1cccc(SSc2cccc(C(=O)O)c2)c1
-5% | O=C1Nc2cc(C(=O)N3CCN(Cc4ccccc4)CC3)ccc2SC1N1CCOCC1 (configuration not stated)
-13% | CC(c1nc2ccccc2c(=O)[nH]1)N(C)c1ccc2ccccc2c1 (configuration not stated)
-17% | CCC(C(=O)Nc1ncn[nH]1)(C(F)(F)F)C(F)(F)F
-7% | CC1(C)COC(c2cc([N+](=O)[O-])ccc2Cl)=N1
? | COc1ccc(OCCCn2c(=O)oc3ccccc32)cc1

New compounds follow
HPGD inh | canonical_smiles
-7% | CC1(C)SC(=S)N(Cc2ccc3c(c2)OCO3)C1N(O)C(=O)NC1CCCCC1 (configuration not stated)
-4% | COc1ccc(-c2cc(O)cc(O)c2)cc1
-12% | Cc1ccc(CCN2CC(C(=O)NCc3ccco3)CC2=O)cc1 (configuration not stated)
-7% | CCOc1ccc(-n2nnnc2SCC(=O)c2ccccc2)cc1
-27% | Cc1cccc(NC(=S)NCC23C=CC(O2)C2C(=O)N(c4ccc(Cl)cc4)C(=O)C23)c1 (configuration not stated)
-14% | COc1ccc(Cc2nnc(SCC(=O)NCC3CCCO3)o2)cc1 (configuration not stated)
-17% | COc1ccccc1OCC(=O)Nc1cccc(C(=O)N2CCOCC2)c1
-6% | Cc1oc(-c2cccs2)nc1CS(=O)CC(=O)NCCCOC(C)C (configuration not stated)
-8% | COc1ccc(C2N(c3ccc(OC)cc3)C(=S)N3CCCN23)cc1 (configuration not stated)
-8% | O=C(c1ccccc1)C(Cn1cncn1)C(Sc1ccccc1)c1ccccc1 (configuration not stated)
-12% | COc1ccc(NC(=S)NC(NC(=O)c2cccc(Cl)c2)C(Cl)(Cl)Cl)c([N+](=O)[O-])c1 (configuration not stated)
-18% | CCCCCCn1c(COc2ccccc2F)nnc1SCC(=O)N1c2ccccc2NC(=O)C1(C)C
? | CCOc1ccc2[nH]c(=O)c(CN(CCO)C(=O)CC)cc2c1
-14% | CC(C)(C)C(=O)COC(=O)c1cccc(NC(=O)c2ccco2)c1
-13% | Cc1ccc(C)c(N2CCN(S(=O)(=O)c3ccc4c(c3)CCC(=O)N4)CC2)c1
-3% | Cc1cc(C)n2nc(SCC(=O)N(C)C)nc2n1
-4% | O=C(COC(=O)C1CC1)Nc1ccccc1Sc1ccccc1
-13% | C=CCn1c(CCCOc2ccc(Cl)cc2Cl)nnc1SCC(=O)Nc1nccs1
-10% | O=C(NCc1cccc(C(F)(F)F)c1)C1CCCN(c2ncccn2)C1 (configuration not stated)
3.2µM* | Cc1ccc(N=Cc2cccc(O)c2O)c(C)c1
-12% | COc1ccc(NC(=O)c2ccc3c(c2)OCO3)cc1Cl
? | C=CCn1c(-c2ccoc2)n[nH]c1=S
? | C=CCNC(=O)/C(C#N)=C/c1cn(-c2ccccc2)nc1-c1ccc(OC)c([N+](=O)[O-])c1
? | CCC(C)NC(=O)c1ccc([N+](=O)[O-])c(Cl)c1 (configuration not stated)
-11% | CCc1ccccc1NC(=O)CCc1nc(-c2ccc(C)cc2)no1
-18% | CCOC(=O)c1c(C)[nH]c(N=Nc2ccc(C)cc2C)c1C
1% | CC(NC(=O)COC(=O)CCNC(=O)c1ccco1)C12CC3CC(CC(C3)C1)C2 (configuration not stated)
-18% | O=C(COC(=O)/C=C/C(=O)OCC(=O)NC12CC3CC(CC(C3)C1)C2)NC12CC3CC(CC(C3)C1)C2
-2% | CC(C)(C)C1CCC(OCC(O)CN2CCN(c3ccccc3)CC2)CC1 (configuration not stated)
-2% | COCCNC(=O)CSc1nc(N)c(NC(=O)c2ccccc2F)c(=O)[nH]1
-3% | O=C(O)CCn1ccnc1-c1ccccc1
-14% | CCOc1ccc(CN2CCC(C(=O)N3CCN(c4ccccc4F)CC3)CC2)cc1OC
-6% | CC1CCC(C(C)C)C(OC(=O)C[n+]2cccc(C(N)=O)c2)C1 (configuration not stated)
-3% | CC(=O)N1[C@H](C)C=C[C@]1(Cc1ccccc1)C(=O)NCCc1c[nH]c2ccccc12
-16% | O=C(Nc1cccc(Cl)c1)N1CCN2C(=O)c3ccccc3C12c1ccccc1 (configuration not stated)
0% | Cc1ccc(NC(=O)CCSc2nc(C)cc(C)n2)cc1
-2% | Cc1nnc2sc(-c3ccccn3)nn12
-6% | CCOc1cccc(C(=O)NC(=S)Nc2ccc(N3CCCC3)cc2)c1
1.6µM* | CNc1ccc(/C=C2\COc3ccccc3C2=O)cc1[N+](=O)[O-]
-10% | CNCCCOc1ccc(C(C)(C)c2ccccc2)cc1

Entries above shown as hits in HPGD inh:
HPGD inh | canonical_smiles
4.5µM* | O=C(O)c1cccc(SSc2cccc(C(=O)O)c2)c1
3.2µM* | Cc1ccc(N=Cc2cccc(O)c2O)c(C)c1
1.6µM* | CNc1ccc(/C=C2\COc3ccccc3C2=O)cc1[N+](=O)[O-]

In a second layout: entries from further up
SMILES	HPGD inh
O=C(Nc1cccc(Cl)c1)N1CCN2C(=O)c3ccccc3C12c1ccccc1 (configuration not stated)	-16%
CCOC(=O)c1c(C)[nH]c(N=Nc2ccc(C)cc2C)c1C	-18%
CCOc1ccc(CN2CCC(C(=O)N3CCN(c4ccccc4F)CC3)CC2)cc1OC	-14%
CNc1ccc(/C=C2\COc3ccccc3C2=O)cc1[N+](=O)[O-]	1.6µM*
CC(C)(C)C1CCC(OCC(O)CN2CCN(c3ccccc3)CC2)CC1 (configuration not stated)	-2%
CC1CCC(C(C)C)C(OC(=O)C[n+]2cccc(C(N)=O)c2)C1 (configuration not stated)	-6%

Further compounds
HPGD inh | canonical_smiles
-11% | COc1cccc2cc(-c3nnc(SCC(=O)NCCc4ccccc4)n3C)oc12
-6% | O=C(NCCOC(=O)c1ccccc1C(=O)OCCNC(=O)c1cccnc1)c1cccnc1
-16% | CCOC(=O)c1c(NC(=O)CN2CCOCC2)sc2c1CC(C)(C)OC2
0% | NC(=O)[C@@H]1CCOc2c(F)cc([N+](=O)[O-])cc2C(=O)N[C@@H](CO)C(=O)NCC(=O)N1
-2% | CCCCc1nc2ccccc2n1CC(=O)NN
? | NC1C2CN(c3nc4c(cc3F)c(=O)c(C(=O)O)cn4-c3ccc(F)cc3F)CC12 (configuration not stated)
-9% | CCOC(=O)c1cccc(NC(=O)CCS(=O)(=O)c2cccs2)c1
-22% | COCc1[nH][nH]c(=O)c1C=Nc1ccc(Oc2ccccc2)cc1
0% | O=C1CCC(C(=O)OCC(=O)C23CC4CC(CC(C4)C2)C3)N1 (configuration not stated)
? | COc1ccc(Cl)cc1C(=O)Nn1c(-c2cccs2)nc2ccccc2c1=O
-8% | COc1ccc(CCNC(=O)CCn2c(=O)[nH]c3cc(OC)c(OC)cc3c2=O)cc1OC
2% | COC(=O)C(Cc1c[nH]c2ccccc12)NC(=O)C(C)C (configuration not stated)
3% | COc1cc([C@H]2c3cc4c(cc3[C@@H](O)[C@@H]3COC(=O)[C@H]23)OCO4)cc(OC)c1OC
-24% | CC(=O)Oc1ccccc1C1=NN(C(=O)/C=C/c2ccccc2)C(c2ccccc2)C1 (configuration not stated)
-5% | Cc1ccc(CCN2CC(C(=O)NCCCN3CCN(C)CC3)CC2=O)cc1 (configuration not stated)
-9% | O=C(c1ccco1)N(CCC(c1ccccc1)c1ccco1)Cc1ccc(F)cc1 (configuration not stated)
-14% | O=C(c1ccc(C(F)(F)F)cc1)N1CCC(=O)N(C(COCc2ccccc2)Cc2ccccc2)CC1 (configuration not stated)
-12% | Cc1ccc(CNn2cnnc2SCc2ccc(F)cc2)cc1
-14% | O=P(OCC1CC1)(c1ccccc1)c1ccccc1
-28% | Nc1c(C(=O)NCCc2ccc(Cl)cc2)sc2ccc(S(=O)(=O)N3CCCCC3)cc12
-12% | Cc1cnc(CNc2nc(-c3cccnc3)nc3ccccc23)cn1
-23% | Cc1nc2nc(CSc3nc4ccccc4s3)cc(=O)n2[nH]1
-20% | COc1c(C=O)c(=O)[nH]c2c(OC)cccc12
0% | CCOC(=O)c1ccc(S(=O)(=O)Nc2cc(C(C)(C)C)no2)cc1

A different layout for some results above.
smiles | HPGD inh
Cc1nc2nc(CSc3nc4ccccc4s3)cc(=O)n2[nH]1 | -23%
COc1c(C=O)c(=O)[nH]c2c(OC)cccc12 | -20%
CCOC(=O)c1ccc(S(=O)(=O)Nc2cc(C(C)(C)C)no2)cc1 | 0%
